Autofluor counter – compound fluorescence in toxin protease inhibitor counterscreen; fluorescence intensity (concentration not given with the values); 360,000 compounds, 3.1% hits; AID 624483; compound autofluorescence counterscreen, microsphere flow cytometry; active compounds read high;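 active = at least 3 SD above the mean of all compounds, about 16000 in these data; inconclusive = too few beads counted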;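 also: 100 nL of 1 mM stock went into each well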
BJeLR lethal – BJeLR cell viability loss | BJeLR (HRASV12) viability, CellTiter-Glo ATP luminescence, 48 h; reference of the scale not given here | inhibition, % (concentration not given with the values) | 300,000 compounds, 0.17% hits | AID 1554;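 active = replicate mean above 50%; inconclusive = above 50% but judged a plate artefact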;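 also: 50 nL library stock added to about 25 µL; numbers are from one replicate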
RN4220 kill – S. aureus RN4220 growth inhibition; 330,000 compounds, 0.33% hits; inhibition, % (concentration not given with the values); OD600, 16 h;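 active = z-score of -3 or lower and OD600 up to 0.18 on both plates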;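 also: plate controls were untreated cells for no effect and reference antibiotic for full effect; stock transfer was 100 nL into about 80 µL; one replicate is shown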
PrP UTR inh – inhibition of PrP 5' UTR reporter expression | cell-based PrP 5' UTR mRNA reporter, plate reader | AID 488862 | 340,000 compounds, 0.35% hits | inhibition, % (concentration not given with the values);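 active = every replicate at 50% or more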;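 also: 0 = median of the neutral control wells; tested in H4 reporter cells; numbers are from one replicate; inactives centre near -14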
Mtb hypoxia inh – reduces hypoxia-regulated biosensor signal in M. tuberculosis; 300,000 compounds, 0.1% hits; M. tuberculosis hypoxia-regulated fluorescent reporter, fluorescence; fluorescence inhibition, % (concentration not given with the values);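 active = 35 to 45% if threefold the growth effect, above 45% if 1.5-fold the growth effect; inactive = the rest, general growth blockers included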;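 also: wells of about 50 µL received 100 nL stock; 0% = vehicle wells and 100% = reference inhibitor wells; whole bacteria with a GFP reporter of the hypoxia response; strong numbers were not always called active; many hits fall short of the cut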
ugtP null kill – growth inhibition of S. aureus ugtP deletion strain; S. aureus RN4220 ugtP deletion, OD600 growth, 16 h; some inactives read as strong as hits; growth inhibition, % (concentration not given with the values); 330,000 compounds, 0.54% hits;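 active = z-score under -3 and OD600 up to 0.15 on both plates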;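 also: plate controls were untreated wells for no effect and antibiotic for full effect; wells of about 80 µL received 100 nL stock; the first replicate is given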
Mtb hypoxia inh growth – further read-out of Mtb hypoxia inh, marked with its call; growth inhibition, %; measured here: M. tuberculosis growth (absorbance);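 0% = vehicle and 100% = reference antibiotic; read after six days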
* hit, by the source's call; ? = inconclusive; nt = no result given.

SMILES	Autofluor counter	BJeLR lethal	RN4220 kill	PrP UTR inh	Mtb hypoxia inh	Mtb hypoxia inh growth	ugtP null kill
Cc1cc(NC(=O)CSc2nc3cc4c(cc3c(=O)n2CCc2ccccc2)OCO4)no1	9202	4	1.3	-12	18	2	-5
CN(Cc1ccc2nonc2c1)Cc1nc(CC2CC2)no1	2548	-4	3.8	-12	18	7	-1
O=C(O)COc1ccccc1C=NNC(=O)c1ccc(NS(=O)(=O)c2cccs2)cc1	8777	nt	4.3	-14	10	3	4
C=CCNC(=O)c1onc(CSc2cccc(C)c2)c1C(=O)O	4221	0	nt	-11	nt	nt	nt
O=[N+]([O-])c1ccccc1/C=C/CN1CCC(O)CC1	3663	-2	3.1	-14	2	0	14
CNC(=O)c1csc(Cc2c(Cl)sc3ccc(Cl)cc23)n1	4176	-9	3.3	-34	12	11	9
Cc1c(NC(=O)C2CCCN2S(=O)(=O)c2cccc3nsnc23)cccc1C(=O)O (stereo unspecified)	4239	11	3.5	-15	4	8	6
CCCCC(=O)Nc1ccc(C(=O)N2CCN(C)CC2)cc1	4405	14	3.6	-28	5	1	-2
CCNc1nc(NCC)nc(OCC(=O)O)n1	4684	3	2.0	-5	21	10	2
Cc1oc(N=Cc2cccc3ccccc23)c(C#N)c1C	nt	nt	5.4	nt	11	9	-7
CC(=O)Oc1cccc(NC(=O)c2cccc(C(=O)Nc3cccc(OC(C)=O)c3)c2)c1	4345	2	3.2	-5	nt	nt	7
COc1ccc(C(=O)N2CCN(C(=O)c3ccc(-c4ccccc4)cc3)CC2)cc1OC	2149	2	-1.9	-17	-5	-2	-5
COC(=O)c1ccccc1NC(=O)CSCC(=O)Nc1ccc(F)cc1	10827	-1	4.9	-26	5	8	6
CCOC(=O)C1=C(c2ccccc2)NC(=S)NC1c1cc([N+](=O)[O-])ccc1OC (stereo unspecified)	4278	-3	-1.0	-7	nt	nt	5
CCN1CCN(C(=O)/C=C/c2ccc(OC)cc2)CC1	3684	-9	-3.0	-17	-7	2	-8
COc1ccc(CN(C)C(=O)c2ccc(Oc3ccccc3)cc2)cc1F	2982	-6	12	-13	-3	6	32
COc1cc(/C=C2\CCC(C3CCCC3)C2=O)ccc1OC(C)C (stereo unspecified)	3596	6	2.2	-14	1	7	6
O=C(Cn1nnc2ccccc2c1=O)N[C@@H](Cc1c[nH]c2ccccc12)C(=O)O	2565	-6	3.0	-25	12	2	3
CCN1C(=O)C2C(c3ccc(C)cc3)N3C(=O)N(c4ccc(C)cc4)C(=O)[C@@]3(Cc3ccccc3)C2C1=O (stereo partly specified)	nt	nt	7.1	nt	-3	1	1
CCOC(=O)COc1ccc2c(C)cc(=O)oc2c1C(=O)c1ccccc1	4871	-4	2.3	-7	-2	-7	0
O=C(OCC(=O)N1CCc2ccccc21)[C@@H]1CC(O)CN1S(=O)(=O)c1ccc(Cl)cc1 (stereo partly specified)	6322	nt	4.8	-3	7	15	1
Cc1ccc(NC(=O)COC(=O)c2ccc([N+](=O)[O-])o2)cc1S(=O)(=O)N1CCCCC1	4064	-8	8.6	-6	3	-1	5
CCc1nc2scc(-c3ccccc3)c2c(=O)n1N	3298	-2	0.7	-17	14	10	4
Cc1ccc(-n2c(C)n[nH]c2=S)cc1	2641	0	2.8	0	-7	18	6
O=C1C(=O)N(CCO)C(c2cccc(F)c2)/C1=C(\O)c1ccc(Cl)cc1 (stereo unspecified)	2906	-4	-3.0	-11	nt	nt	4
COc1cccc(CNC(=O)CN2C(=O)CSc3ccc(S(=O)(=O)N4CCOCC4)cc32)c1	4556	0	5.7	-10	3	-7	11
O=C(Cc1ccccc1)NCC(=O)N1CCCC1	3273	-3	2.5	-12	14	1	12
CC1=C(C(=O)Nc2ccccc2C(=O)NC2CCCCC2C)SCCO1 (stereo unspecified)	5939	0	-0.5	-3	-7	4	-5
O=C(c1cc2cc(F)ccc2[nH]1)N1CCCC(Nc2ccc(F)cc2)C1 (stereo unspecified)	4264	-5	nt	-9	nt	nt	nt
O=C(CSc1nc2ccccc2c(=O)n1Cc1ccco1)c1ccccc1	10181	-3	5.6	-13	-3	1	20
O=C(O)CC1SC(=O)N(Cc2ccccc2)C1=O (stereo unspecified)	6483	32	3.8	-15	11	5	5
COc1ccc(CCNC(=O)CN2C(=O)NC3(CCCCC3C)C2=O)cc1 (stereo unspecified)	3850	nt	2.8	1	17	19	2
O=C(NC(NC(=S)Nc1ccccc1C(=O)O)C(Cl)(Cl)Cl)c1ccccc1 (stereo unspecified)	2500	-3	4.9	-5	-1	1	-1
CCCCNC(=O)NNc1nc(Cl)cc(C)c1C#N	4594	7	-2.3	-32	3	1	-4
COc1cc(NC(=O)Cn2nc(Cc3cccnc3)c3ccccc3c2=O)cc(OC)c1OC	5048	-3	-21	-1	8	8	-1
COc1cccc(NC(=O)C(C)OC(=O)c2n[nH]c3ccccc23)c1 (stereo unspecified)	3464	nt	2.1	-17	-12	3	-14
Cc1cccc(C)c1OC(=O)c1ccccc1	3544	nt	-4.1	-26	18	7	8
COc1ccccc1N(CC(=O)NCc1ccco1)C(=O)CCC(=O)Nc1ccccn1	3727	3	4.4	-10	1	-2	14
CC1(C)Cn2c(nnc2-c2ccccc2)S1	7578	0	1.7	-55	11	7	12
CN1CCN(C(=S)C(=O)NCc2ccccc2)CC1	4437	-5	6.0	4	-8	-3	4
CCSc1nc(C)c(CC)c(C)c1C(N)=O	2736	22	0.1	-9	nt	nt	-1
COc1ccc(NC(=S)c2ccccc2)cc1	2564	-11	5.8	-64	1	12	6
Cc1ccccc1C(=O)NCC(=O)OC1CCCCC1=O (stereo unspecified)	5370	2	2.2	-14	10	1	7
O=C(NCCc1ccc(Cl)cc1)C1CCCN1C(=O)Nc1ccccc1 (stereo unspecified)	3582	-16	3.2	-24	3	5	5
Oc1c(Cl)cc(Cl)c2c1NCCC2	2364	-8	nt	-15	nt	nt	nt
O=C(c1ccc(Cl)c(S(=O)(=O)NCc2cccnc2)c1)N1CCCC1	nt	nt	3.0	nt	8	-7	7
COc1ccc(CCCc2n[nH]c(=S)o2)cc1C	4646	8	15	-17	23	26	10
CCn1c(SCC(=O)Nc2nc3ccc(OC)cc3s2)nc2c1c(=O)n(C)c(=O)n2C	21795*	4	3.5	-5	1	4	-20
O=C(CSCC(=O)N1CCOCC1)Nc1ccccc1	2402	nt	2.3	6	nt	nt	2
COc1ccc(/C=N/NC(=O)CNC(=O)c2ccncc2)cc1	3834	-2	nt	-2	nt	nt	nt
O=C(N/C(=C\c1ccc([N+](=O)[O-])cc1)C(=O)N1CCOCC1)c1cccc(Br)c1	4459	10	4.2	0	4	0	5
O=C(NCc1cc(C(F)(F)F)ccc1Cl)c1cccc2c1C(=O)c1ccc(N3CCOCC3)cc1S2(=O)=O	2839	nt	20	-15	10	13	2
CCOC(=O)C1CCN(S(=O)(=O)c2ccc(Br)c(OCC)c2)CC1	4361	-11	-2.2	3	nt	nt	-1
COc1ccc(/C(C)=N/NC(=O)CNC(=O)/C=C\c2ccccc2OC)c(OC)c1	5821	-5	nt	-18	nt	nt	nt
Cc1c(S(=O)(=O)N2CCCC(C)C2)c(=O)n(C)c(=O)n1C (stereo unspecified)	?	-2	0.7	-14	9	2	3
Cc1ccccc1-c1cc(C(=O)NCc2cccs2)n(CC2CC(c3cccnc3)=NO2)n1 (stereo unspecified)	3068	nt	3.1	-11	10	11	3
CCC(=O)c1ccc(OCC(=O)N(Cc2nnc(-c3ccccc3Cl)o2)C2CC2)cc1	3931	-14	7.6	-6	-1	2	16
Cc1cccc(C(=O)O/N=C(\N)c2ccccn2)c1	4386	4	4.0	56*	-7	4	-4
CNC(=O)c1cc2c(ccc3ccccc32)o1	2046	1	1.7	-46	5	2	-8
COc1ccc(C(=O)OCC(=O)c2ccc3[nH]c(=O)[nH]c3c2)c(OC)c1OC	3935	nt	4.4	-12	5	1	3

4 entries from above, with two lines to a compound.
Below each SMILES – Autofluor counter	BJeLR lethal	RN4220 kill	PrP UTR inh	Mtb hypoxia inh	Mtb hypoxia inh growth	ugtP null kill
O=C(CSCC(=O)N1CCOCC1)Nc1ccccc1
  2402	nt	2.3	6	nt	nt	2
COc1ccc(/C=N/NC(=O)CNC(=O)c2ccncc2)cc1
  3834	-2	nt	-2	nt	nt	nt
O=C(N/C(=C\c1ccc([N+](=O)[O-])cc1)C(=O)N1CCOCC1)c1cccc(Br)c1
  4459	10	4.2	0	4	0	5
O=C(NCc1cc(C(F)(F)F)ccc1Cl)c1cccc2c1C(=O)c1ccc(N3CCOCC3)cc1S2(=O)=O
  2839	nt	20	-15	10	13	2

The list goes on:
SMILES	Autofluor counter	BJeLR lethal	RN4220 kill	PrP UTR inh	Mtb hypoxia inh	Mtb hypoxia inh growth	ugtP null kill
CC(C)(c1ccccc1)c1ccc(OCCN2CCCC2)cc1	3616	-2	2.0	-13	8	6	19
CC1CCCN(c2ccc(C(=O)OCn3nnc4ccccc4c3=O)cc2[N+](=O)[O-])C1 (stereo unspecified)	2005	5	1.0	-4	16	8	9
CC1C(=O)Nc2ccc(S(=O)(=O)N3CCN(c4cccc(C(F)(F)F)c4)CC3)cc2NC1=O (stereo unspecified)	4126	9	-3.8	-1	-2	-6	3
Cc1ccc(Cn2cccc(NC(=O)NCc3ccccc3)c2=O)cc1	8726	4	0.1	0	4	9	3
Cc1cccc(C)c1OC(=O)Cc1ccccc1[N+](=O)[O-]	3079	5	6.1	2	3	0	7
CC(C)Nc1ccc(-n2nc3ccccc3[n+]2[O-])cc1	3032	3	4.2	27	5	-3	5
CCCc1nn(C)c(C(=O)Nc2ccc(C)c(C)c2)c1Cl	2603	-5	4.5	-37	11	8	15
O=C(O)c1ccc(N/N=C/c2cc3ccccc3nc2Cl)cc1	3722	19	nt	-80	nt	nt	nt
Cc1nnc(NC(=O)C2CCCCC2)s1	22880*	-3	-1.1	-9	1	18	2
O=C(NN=Cc1cn(-c2ccccc2)nc1-c1cc2ccccc2o1)c1c[nH]c2ccccc12	nt	nt	-3.9	nt	6	-8	-28
O=C(NCCc1ccccc1)C1CCN(C(=O)N2CCOc3ccccc32)CC1	4589	-4	-9.9	-30	13	9	1
COc1ccc(N(CC(=O)NCc2ccccc2)C(=O)Cn2nnc(-c3ccccc3F)n2)cc1OC	4621	2	2.8	-19	-3	-8	7
Cc1ccc(NC(=O)COC(=O)c2ccnn2C)cc1	13190	-5	1.6	-28	11	7	4
C#CCN(CC=C)C(=O)c1ccc(OC2CCN(S(=O)(=O)N(C)C)CC2)cc1	3832	4	3.2	-24	-1	-2	3
CN(C)C(=O)CCc1ccc2c3c([nH]c2c1)[C@]1(CCC2CCCC2)[C@@H](C(=O)N2CCOCC2)C[C@H](CC(=O)NCc2ccco2)C(=O)N1CC3	3479	nt	-0.6	-16	-10	6	0
CCCNS(=O)(=O)c1ccc(CCC(=O)Nc2ccc3c(c2)OCO3)cc1	9272	4	5.6	-16	1	3	-1
O=C(CNS(=O)(=O)c1ccccc1F)Nc1ccc(N2CCOCC2)cc1	5191	9	-2.4	-29	-7	2	-4
NC12CC3CC(C1)CC(CO)(C3)O2	2996	4	-14	-65	14	8	-4
Cc1ccc(-c2nn(-c3ccccc3)cc2C=C2C(=O)CC(C)(C)CC2=O)cc1	2990	13	-4.5	-67	6	12	12
CCOC(=O)c1ccccc1NC(=O)CSc1nc2[nH]ncc2c(=O)[nH]1	?	14	2.1	-16	3	-3	0
Cc1nc(NC(=O)CSc2nnc(Cn3nnc4ccccc43)n2C)sc1C	2535	15	6.4	-24	8	8	-3
COc1ccc(N(CC(=O)NN=C(C)c2ccc(OC)c(OC)c2)S(=O)(=O)c2ccccc2)cc1	nt	nt	1.9	nt	9	-1	2
CC1(C)Cc2c(C#N)c(NCCCO)nc(-c3ccccc3)c2CO1	5302	-5	3.1	-21	-9	-8	-19
CC(C)Oc1ccc(OCCn2c(S(=O)(=O)O)nc3c(N)ncnc32)cc1	2947	1	4.8	-12	-18	-5	14
N#Cc1c(/N=C/c2c(O)n(Cc3ccco3)c(=O)[nH]c2=O)sc2c1CCCC2	4802	2	2.9	-8	-1	-5	-2
CC(=NNC(=O)Cc1ccc(F)cc1)c1ccc(F)cc1	nt	nt	2.7	nt	6	-2	-3
CCCCOc1ccc(CSCCNC(=S)Nc2ccccc2)cc1	2663	-24	3.0	-36	9	4	0
